CHT inh: inhibitors of human choline transporter CHT; Q9GZV3; CHT-expressing cells, membrane potential dye, choline response; hits give low values; B-score at 10 µM; 0.86% of 310,000 active; AID 488975;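 active = B-score over 3 SD under the library average, and starting fluorescence ratio not unusually high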;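 note: choline stimulus applied at its EC90 after an EC20 pre-addition; B-score computed on integrated fluorescence ratio after choline addition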
Target sequence (Q9GZV3 whole entry, looked up): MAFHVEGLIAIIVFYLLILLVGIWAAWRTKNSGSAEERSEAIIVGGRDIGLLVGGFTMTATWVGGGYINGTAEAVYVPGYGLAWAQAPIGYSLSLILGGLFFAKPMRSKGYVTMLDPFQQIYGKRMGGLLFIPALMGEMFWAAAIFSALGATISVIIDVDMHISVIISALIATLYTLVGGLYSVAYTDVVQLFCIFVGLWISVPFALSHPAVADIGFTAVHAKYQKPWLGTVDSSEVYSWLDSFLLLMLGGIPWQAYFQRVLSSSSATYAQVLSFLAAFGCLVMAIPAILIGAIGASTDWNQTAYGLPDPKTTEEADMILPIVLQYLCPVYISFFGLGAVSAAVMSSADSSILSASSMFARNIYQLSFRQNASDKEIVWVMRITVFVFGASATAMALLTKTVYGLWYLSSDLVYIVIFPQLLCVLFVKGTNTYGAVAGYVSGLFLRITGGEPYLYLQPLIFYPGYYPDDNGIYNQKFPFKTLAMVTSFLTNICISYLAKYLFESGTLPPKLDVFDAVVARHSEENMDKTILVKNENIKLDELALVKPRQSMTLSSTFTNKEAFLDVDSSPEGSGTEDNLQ
CHT PAM: allosteric activators of human choline transporter CHT; B-score at 10 µM; Q9GZV3; CHT-expressing cells, membrane potential dye, choline EC20; hits give high values; LV-AA mutant CHT in HEK293 cells; AID 488977; 0.49% of 310,000 active;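 active = initial fluorescence not abnormally high and integrated response B-score, plate-corrected, over 3 SD above library mean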
Calls only; i = inactive. Not all compounds are listed, and most or all hits are left out here.

Molecule | CHT inh | CHT PAM
COc1cccc(C(=O)N2CCC(n3nccc3NC(=O)C3CCOC3)CC2)c1 (stereo not given) | i | i
NC(=O)CSc1ccc(F)cc1 | i | i
Fc1ccc(CNC(=S)NC2CCCCC2)cc1 | i | i
CCCCCN=C(N)N/N=C/c1c[nH]c2ccc(OC)cc12 | i | i
Cc1nc2cc(F)ccc2n1C1CCN(S(=O)(=O)c2ccccc2)CC1 | i | i
O=C(Cc1ccc(S(=O)(=O)N2CCOCC2)s1)NCCc1ccc(F)cc1 | i | i
OCCN1CCN(C2CCC(c3ccc(F)cc3)c3ccc(F)cc32)CC1 (stereo not given) | i | i
O=C(O)c1cc(NC(=O)c2ccco2)cc(NC(=O)c2ccco2)c1 | i | i
O=C(NCCCN1CCCC1)Nc1cccc2ccccc12 | i | i
CCOC(=O)c1c(C)[nH]c(C(=O)/C(C#N)=C/c2ccc(OCC)cc2)c1C | i | i

The last 3 entries of the part above are carried over, then new ones follow.
Molecule | CHT inh | CHT PAM
O=C(O)c1cc(NC(=O)c2ccco2)cc(NC(=O)c2ccco2)c1 | i | i
O=C(NCCCN1CCCC1)Nc1cccc2ccccc12 | i | i
CCOC(=O)c1c(C)[nH]c(C(=O)/C(C#N)=C/c2ccc(OCC)cc2)c1C | i | i
COc1ccc(C(=O)Nc2ccccc2N2CCN(C(=O)C(C)C)CC2)cc1Cl | i | i
COC(=O)Cn1c(CN2CCc3ccccc3C2)nc2c1c(=O)n(C)c(=O)n2C | i | i
CCCOC(=O)c1ccc(NC(=O)C(=O)NCCN(CC)CC)cc1 | i | i
Cc1ccccc1N(C(=O)c1snc(C(N)=O)c1N)C(C(=O)NCc1ccccc1)c1ccc(O)cc1 (stereo not given) | i | i
CC(=O)Nc1ccc(N2C(=O)CSC2c2ccccc2)cc1 (stereo not given) | i | i
O=C(NCC1CCCO1)c1ccc(OC2CCN(C(=O)C3CC3)CC2)cc1 (stereo not given) | i | i
CN1C(=O)/C(=C\c2ccc(-c3ccccc3)o2)SC1=S | i | i
Cc1cc(C)c(S(=O)(=O)n2nc(C)c(Br)c2C)c(C)c1 | i | i
COc1ccc(NCC(=O)n2c(C)c(C)c3ccccc32)cc1OC | i | i
CC(C)(C)NC(=S)NNC(=O)c1ccccc1Cl | i | i

Carrying on.
Molecule | CHT inh | CHT PAM
O=c1cc(O)n(-c2ccccc2)c(=S)[nH]1 | i | i
CCC(=O)c1ccc(Oc2nc3c(c(=O)n(C)c(=O)n3C)n2CC)cc1 | i | i
Cn1nnnc1SCC(=O)NCCCc1ccccc1 | i | i
CC(C(=O)NCCc1ccc(S(N)(=O)=O)cc1)N1C(=O)CC(C)(C)Sc2ccccc21 (stereo not given) | i | i
C=CCn1c(=N)n(CC(=O)OC)c2ccccc21 | i | i
CCN1C(=O)c2ccc(C(=O)Nc3nccs3)cc2C1=O | i | i
O=C(NCc1cccc(Cl)c1)NCc1cccc(Cl)c1 | i | i
CCCN(CCC)C(=O)Cn1c2ccccc2c2nc(=O)cc(C)n21 | i | i
Cc1c(=O)n(OCc2cccc(F)c2)c2ccccc2[n+]1[O-] | i | i
COCC(=O)N(C)C1(c2nnnn2CCOC(=O)Nc2ccc(Cl)cc2)CCCCC1 | i | i

Carrying on.
Molecule | CHT inh | CHT PAM
CC(=O)NCCn1c(SCc2cccc([N+](=O)[O-])c2)nc2ccccc2c1=O | i | i
Cn1cccc1CNC1CCCC1 | i | i
Cc1cccn2cc(CNS(=O)(=O)c3ccc4ccccc4c3)nc12 | i | i
CC(OC(=O)CNS(=O)(=O)/C=C/c1ccccc1)C(=O)Nc1ccc(S(=O)(=O)N2CCCC2)cc1 (stereo not given) | i | i
CCOc1ccc(N2C(=O)CC(N3CCN(c4ccccc4OC)CC3)C2=O)cc1 (stereo not given) | i | i
Cc1nnc(SCC(=O)Nc2ncc(S(=O)(=O)c3ccc([N+](=O)[O-])cc3)s2)s1 | i | i
CC(C)(C)c1ccc(C(=O)NCC(=O)N/N=C/c2ccccc2OCC(=O)O)cc1 | i | i
CC(C)[C@H]1C(=O)Nc2ccccc2N1C(=O)N[C@@H](Cc1ccccc1)C(=O)N[C@H](C(=O)O)c1ccccc1 | i | i
CC(CCc1ccccc1)NC(=O)c1ccc(C(=O)NC(C)CCc2ccccc2)cc1 (stereo not given) | i | i
CCCCN(C(=O)C1CC(=O)N(Cc2ccc(C)cc2)C1)c1c(N)n(CC(C)C)c(=O)[nH]c1=O (stereo not given) | i | i

Following part
Molecule | CHT inh | CHT PAM
COc1ccccc1/C=C/c1nc(S(=O)(=O)c2ccccc2)c(N(C)C)o1 | i | i
Cc1c(Cl)cccc1NC(=O)CSc1ccc(-c2cccnc2)nn1 | i | i
CCN(CC(=O)Nc1c(F)cccc1F)C(=O)c1ccc(NC(=O)CC2SC(N3CCCC3)=NC2=O)cc1 (stereo not given) | i | i
CCc1cc(=O)oc2c3c(cc(OCC(=O)NCCCC(=O)O)c12)OC(C)(C)CC3 | i | i
C=CCNC(=O)c1onc(CSc2ccc(F)cc2)c1C(=O)NCC=C | i | i
O=C(Nc1cccc(F)c1)c1c(O)c2ccccc2[nH]c1=O | i | i
Cc1nc(N(C)C)c2sc(=S)n(-c3ccccc3)c2n1 | i | i
O=C(C1CCCN(S(=O)(=O)c2ccccc2)C1)N1CCN(c2ncccn2)CC1 (stereo not given) | i | i
CSc1nc2ccccc2n1C(=O)NC1CCCCC1 | i | i
COCCNC(=O)[C@@H]1CSC2c3ccc(OC)c(OC)c3C(=O)N21 (stereo not given in full) | i | i

More structures follow:
Molecule | CHT inh | CHT PAM
CCN(CC(=O)Nc1c(F)cccc1F)C(=O)CCCc1nc2ccccc2c(=O)[nH]1 | i | i
Cc1c(Cl)cccc1NC(=O)CSc1ncnc2c1cnn2CCc1ccccc1 | i | i
CNC(=S)NNC(=O)COc1ccccc1C | i | i
Cc1cc(C(=O)NCCc2ccc(S(N)(=O)=O)cc2)c(C)o1 | i | i
Cc1occc1-c1nnc(SCC(=O)c2cc3ccccc3oc2=O)o1 | i | i
C=CCC1NS(=O)(=O)OC2CCCCC12 (stereo not given) | i | i
CCC(C)N1C(=O)CCC1C(=O)NCCc1ccc(Cl)cc1 (stereo not given) | i | i
O=C(Nc1ccccc1)N1CCc2ccccc21 | i | i
CSCCC1NC(=O)N(CC(=O)Nc2c(Cl)cc(Cl)cc2Cl)C1=O (stereo not given) | i | i
O=C(CN1C(=O)c2ccccc2C1=O)OCCOCCN=C1NS(=O)(=O)c2ccccc21 | i | i

Later entries:
Molecule | CHT inh | CHT PAM
COc1ccccc1S(=O)(=O)Cc1ccc(C(=O)N2CCN(c3ccccc3)CC2)o1 | i | i
COC(=O)Cc1c(C)c2c(O)cc(C)cc2oc1=O | i | i
CC(=O)c1ccc(N2Cc3ccccc3/C2=N\C(=O)Nc2ccccc2)cc1 | i | i
CC(=O)OC1CC(C)(C)N(OC(=O)c2ccc(N)cc2)C(C)(C)C1 | i | i
CC(C)(C)c1ccc(/C=C/C(=O)N2CCc3ccccc3C2)cc1 | i | i
Cc1ccc2scc(CN3CCCC3)c2c1 | i | i
Cc1nnc(SCC(=O)N2CC(=O)Nc3ccccc32)n1C | i | i
O=C(N/N=C/c1ccccn1)c1cc(C2CC2)nc2ccccc12 | i | i
COc1ccc(NC(=O)C2=CC(c3ccc(C)cc3)=NS(=O)(=O)N2C)cc1 | i | i
O=C1CC(c2cccc(F)c2)SC(N(c2ccccc2)c2ccccc2)=N1 (stereo not given) | i | i

Complete entries from above. Values in the order: CHT inh, CHT PAM
CNC(=S)NNC(=O)COc1ccccc1C as listed: i, i
Cc1cc(C(=O)NCCc2ccc(S(N)(=O)=O)cc2)c(C)o1 as listed: i, i
Fc1ccc(CNC(=S)NC2CCCCC2)cc1 as listed: i, i
O=C(Nc1cccc(F)c1)c1c(O)c2ccccc2[nH]c1=O as listed: i, i
Cc1ccc2scc(CN3CCCC3)c2c1 as listed: i, i

Further compounds.
Molecule | CHT inh | CHT PAM
Cc1ccc(-c2cc(C(=O)N3CC(C)OC(C)C3)c3ccccc3n2)o1 (stereo not given) | i | i
Cc1ccc(N2C(=O)C3Sc4[nH]c(=O)sc4C(c4ccccc4)C3C2=O)cc1 (stereo not given) | i | i
CCOc1cc2c(cc1OCC)C(c1ccccc1)N(c1ccc(C(=O)O)cc1)C(=O)C2 (stereo not given) | i | i
O=C(NCC1CCCO1)c1ccccc1-c1nc(-c2ccccc2Cl)no1 (stereo not given) | i | i
Cc1nc(CNS(=O)(=O)c2cccc(F)c2)cs1 | i | i
CN(C)NC(=S)Nc1ccc(S(=O)(=O)N2CCCCC2)cc1 | i | i
Cc1cccc(NC(=O)[C@H](NC(=O)[C@@H]2Cc3ccccc3CN2)c2ccccc2)c1 | i | i
Cc1ccccc1NC(=O)NC1(C(=O)N2CCC(O)CC2)CCCCC1 | i | i
CCC(CC)NC(=O)CC(c1ccccc1)c1ccccc1 | i | i
COc1ccc(N2CCN(C(=O)c3cc(=O)c4cc(C)ccc4o3)CC2)cc1 | i | i

(list continues)
Molecule | CHT inh | CHT PAM
CC(=O)NC(CC(=O)Nc1ccc(S(=O)(=O)N2CCCCC2)cc1)c1ccccc1 (stereo not given) | i | i
Cn1c(=NC(=O)c2ccc3c(c2)OCCO3)sc2cc(S(C)(=O)=O)ccc21 | i | i
CCN(CC)c1ccc(C2N(C(=O)N3CCOCC3)CCN2S(=O)(=O)c2ccc(C)cc2)cc1 (stereo not given) | i | i
O=C(NCc1cccnc1)c1ccc(Cl)c(Cl)c1 | i | i
O=C(CC1NC(=O)NC1=O)Nc1ccccc1 (stereo not given) | i | i
COc1cc2c(cc1OC)[C@@H]1Cc3ccc(OC)c(OC)c3CN1CC2 | i | i
O=C(NCCCO)/C(=C\C=C\c1ccccc1)NC(=O)c1ccccc1Cl | i | i
Cc1noc(C)c1CSc1nc2sc3c(c2c(=O)n1C)CCCC3 | i | i
CC1CCCN(C(=O)C2CCN(S(=O)(=O)c3cccc4nsnc34)CC2)C1 (stereo not given) | i | i
COc1ccccc1NS(=O)(=O)c1ccc2nc(CCl)[nH]c2c1 | i | i

Further entries follow.
Molecule | CHT inh | CHT PAM
O=C(NC1CCS(=O)(=O)C1)c1cc(-c2ccccc2)nc2ccccc12 (stereo not given) | i | i
Cc1cccc(NC(=O)c2cc(NC(=O)CCCC(=O)O)ccc2Cl)n1 | i | i
CCOC(=O)[C@@H]1[C@H]2COc3ccccc3[C@H]2N2C(=O)N(c3cccc(Cl)c3)C(=O)[C@@]12C | i | i
Cc1ccc(C(=O)N2CCCCCC2)cc1Br | i | i
O=C(CN(c1ccccc1)S(=O)(=O)c1ccccc1[N+](=O)[O-])NN=C1CCCCCCC1 | i | i
CCCN1C(=O)c2ccc(C(=O)Nc3ccc4c(c3)OCO4)cc2C1=O | i | i
Clc1ccc(-c2cnn3c(-c4ccncc4)ccnc23)cc1 | i | i
O=C(O)C1OC(Oc2cc3oc(-c4ccccc4)cc(=O)c3c(O)c2O)C(O)C(O)C1O (stereo not given) | i | i
Cn1nc(-c2ccc(Cl)cc2)c2cc(C(=O)N3CCOCC3)sc21 | i | i
CCOC(=O)c1c(C)nc2sc3c(=O)n(-c4ccc(C(C)=O)cc4)nnc3c2c1-c1ccc(Cl)cc1 | i | i

More compounds
Molecule | CHT inh | CHT PAM
CCOc1ccc(N2CC(NC(=O)c3cccc4ccccc34)CC2=O)cc1 (stereo not given) | i | i
O=C(c1c(Cl)cccc1Cl)N1CCCCCC1 | i | i
Cc1ccc(CCNC(=O)C23CN(Cc4ccccc4)CC2C(c2ccc([N+](=O)[O-])cc2)=NO3)cc1 (stereo not given) | i | i
O=C1CC(NS(=O)(=O)c2cccnc2)CN1c1ccc(Cl)cc1 (stereo not given) | i | i
CC1CCCCC1NC(=O)CCCCCn1c(=S)[nH]c2ccsc2c1=O (stereo not given) | i | i
Cc1cc(S(=O)(=O)N2CCCCC2CCNC(=O)C(=O)NCC2CCCO2)ccc1F (stereo not given) | i | i
O=C(Nc1nccs1)c1cc2sccc2n1Cc1ccc(Cl)cc1 | i | i
O=C(NNC(=O)c1ccccc1Cl)c1cc2cc(OC(F)(F)F)ccc2[nH]1 | i | i
CCCC(O)(CCC)C(=O)NNc1ccccc1 | i | i
O=C(NC1CCCCCC1)C1CCN(S(=O)(=O)c2ccc(F)cc2)CC1 | i | i

Following part
Molecule | CHT inh | CHT PAM
CCc1nnc(SCC(=O)Nc2ccccc2)n1CC1CCCO1 (stereo not given) | i | i
COCCn1c(SCCCC(=O)c2ccc(Br)cc2)nnc1-c1ccncc1 | i | i
CCc1cc2cc(C)cc(C)c2nc1SCC(=O)NNC(=O)c1ccco1 | i | i
O=[N+]([O-])c1cncc([N+](=O)[O-])c1Nc1ccccc1Cl | i | i
Cc1cc(C(=O)N2CCN(c3cccc(Cl)c3)CC2)c(C)o1 | i | i
O=C(CCCOc1ccccc1)N1CCCCC1 | i | i
CCOC(=O)c1cnn(-c2ccccc2)c1-n1cccc1C(=O)C(=O)Nc1ccccc1 | i | i
Cc1ccc(S(=O)(=O)N2CCN(C(=O)c3ccc(S(=O)(=O)N4CCCC4)cc3)CC2)cc1 | i | i
CSc1cc(C)n(-c2ccc(Cl)cc2)c(=S)c1C(C)=O | i | i
COc1ccc(/C=N/NC(=O)c2c(C)nc3ccc(Cl)cn23)cc1OC | i | i

Continued:
Molecule | CHT inh | CHT PAM
CC1(C)CC(=O)C2=C(C1)N(N1CCOCC1)C(N)=C(C#N)C2c1cccnc1 (stereo not given) | i | i
Cc1onc(-c2ccccc2Cl)c1C(=O)Nc1ccc(N2CCOCC2)cc1 | i | i
O=C(Nc1ccc2c(c1)CCC2)c1ccc(Br)s1 | i | i
CS(=O)(=O)N1CCN(C(=O)Cc2ccc(Br)cc2)CC1 | i | i
